Screening results deposited in PubChem by Center for Chemical Genomics, University of Michigan.
HIV TAR-Tat = HIV-1 TAR-Tat binding disruption; HIV-1 TAR RNA, Tat peptide displacement FRET; hits give high values; z-score (concentration not given with the values); 100,000 tested, 0.6% active;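 also: score is relative to mean and SD of negative controls; some compounds called inactive have numbers as strong as hits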
CDC25B CDK2 inh = human CDC25B-CDK2/CyclinA binding inhibition. z-score (test concentration not listed). 94,000 tested, 0.72% active. P30305+P24941. HTRF CDC25B-CDK2/CyclinA binding, anti-His/anti-Flag; hits give high values. AID 1259370;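 also: score is relative to mean and SD of negative controls; strong numbers were not always called active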
* hit, by the source's call; · = no result given.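 The calls were made as follows: active = z-score from 3 up in half or more of its runs; inactive = the rest.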

no. | SMILES | HIV TAR-Tat | CDC25B CDK2 inh
1 | C[C@@H]1C(=O)[C@H](C)[C@@H](c2cccs2)N(C(=O)Nc2cccc(F)c2)[C@H]1c1cccs1 | 0.32 | -2.3
2 | COc1ccc(N2CCN(C(=O)c3cn4c5c(ccc(Cl)c5c3=O)OC(C)C4)CC2)cc1 (configuration not stated) | 0.16 | ·
3 | Cc1nnc(SC2CC(=O)N(c3cccc(Cl)c3C)C2=O)s1 (configuration not stated) | 1.4 | -1.9
4 | O=C(c1ccc(Cl)cc1)C(C(=O)N1CCc2ccccc2C1)n1ccccc1=O (configuration not stated) | -0.52 | 0.02
5 | O=S(=O)(Nc1ccc(F)cc1)c1cc(Cl)c(Cl)cc1Cl | · | 0.95
6 | CCC1CN(C(=O)NCCC(C)C)c2cc(C)ccc2O1 (configuration not stated) | 1.4 | ·
7 | CC(C)c1nnc(NC(=O)c2nc(S(C)(=O)=O)ncc2Cl)s1 | 2 | 0.52
8 | CN1C(=O)CN(S(C)(=O)=O)CC1(C)C(=O)NCC(=O)NCCc1ccco1 (configuration not stated) | 1.7 | ·
9 | CN(C(=O)c1noc2c1COc1ccccc1-2)c1ccc(Br)cc1 | 1.2 | -0.09
10 | N=c1ncn(Cc2ccccc2)c2nc(SCCOc3ccc(Cl)cc3)[nH]c12 | · | 2.5
11 | CCOC(=O)CCc1c(C)nn2cnnc2c1C | 0.18 | -0.23
12 | COc1cc(C(F)(F)F)cc(C(F)(F)F)c1C(=O)Nc1cc(C)on1 | · | 0.38
13 | O=C(c1ccc2c(=O)n3c(nc2c1)CCCCC3)N1CCOCC1 | · | -1.8
14 | O=c1c2cn[nH]c2[nH]c(=S)n1-c1ccc(F)c(Cl)c1 | · | -4.4
15 | O=C(NCc1csc(-c2ccccc2)n1)[C@H]1CSCN1C(=O)c1ccco1 | 0.81 | ·
16 | CC(C)(C)NC(=O)c1ccc(-n2nc(C(F)(F)F)c3c2-c2ccoc2CC3)cc1 | 0.23 | 0.47
17 | CC(C)CCNC(=O)Cn1cc2c(n1)CCC(C)C2 (configuration not stated) | · | -1.4
18 | CC(C)(C)NC(=O)CSc1nc(N)c(C#N)cc1C#N | · | -1.3
19 | CCOC(=O)c1nc(N(C)c2ccc(F)cc2)c2ccccc2n1 | 1.9 | ·
20 | COCCCNC1=C(C#N)C(=O)NC(C2CC=CCC2)S1 (configuration not stated) | · | -2.2
21 | O=C(CN1C(=O)C2CCCCN2c2ccc(S(=O)(=O)N3CCCC3)cc21)NC1CCCC1 (configuration not stated) | 0.64 | ·
22 | COc1ccc(NC2=NS(=O)(=O)C(c3ccc(C)cc3)=C2C)c(OC)c1 | 0.24 | -1.9
23 | COC(=O)C[C@H]1C(C)(C)C2(Cl)O[C@@]34CC2C(=O)[C@]1(C)C3CC[C@]1(C)C4=CC(=O)O[C@H]1c1ccoc1 (some centres not stated) | 2.5 | ·
24 | C=CCN(CC=C)Cc1c(C)[nH]c2ccc(CC)cc2c1=O | 1.8 | 0.52
25 | COc1ccc(S(=O)(=O)Nc2cccnc2)cc1 | 1 | -0.13
26 | O=C(N/N=C1\CC2CCC1C2)c1ccc(Cl)cc1Cl (configuration not stated) | · | -3.2
27 | Cc1ccc2oc3c(c(=O)c2c1)C(c1ccc(C(C)C)cc1)N(CCCN1CCOCC1)C3=O (configuration not stated) | 1.7 | -1.1
28 | Cc1ccc(C)n1-c1ccc(C(=O)NNS(=O)(=O)c2cccc(C(F)(F)F)c2)cc1 | · | 0.15
29 | COc1ccccc1OCCN1CCn2c1nc1ccccc1c2=O | -0.17 | -0.04
30 | Cc1c(C(=O)NC2CCCc3ccccc32)sc2nc3n(c(=O)c12)CCCCC3 (configuration not stated) | 1.4 | ·
31 | Cc1cc(C)c(C#N)c(Sc2ccccn2)n1 | · | -1.3
32 | Cc1oc(-c2ccccc2)nc1Cn1c(=O)cc(-c2ccccc2)c2c(C)nn(C)c21 | 0.41 | ·
33 | COc1ccc(OCCN[C@H]2CS(=O)(=O)C[C@@H]2S(=O)(=O)c2ccc(F)cc2)cc1 | 1.6 | -1
34 | CCN(CC)C/C(C)=N/Nc1ccccc1 | · | -1.1
35 | CC(=O)n1c2ccccc2c2nc(C)sc21 | -1.2 | -0.89
36 | Cc1cc(NC(=O)CSc2nc3ncccc3[nH]2)no1 | 1.1 | 0.05
37 | Cc1cc(C)cc(N2CC(O)=C(c3nc4ccccc4c(=O)[nH]3)C2=N)c1 | 3.2 | -6.4
38 | COC(=O)C1=C(C)NC2=C(C(=O)c3ccccc32)C1c1ccc(Cl)cc1 (configuration not stated) | 1.9 | ·
39 | CCc1cc2c3c([nH]c2cc1S(=O)(=O)Nc1cc(C)ccc1C)CCCC3=O | 3.3 | ·
40 | Brc1ccc(C(c2c[nH]c3ccccc23)c2c[nH]c3ccccc23)s1 | · | 16*
41 | CCN(CC)c1nc2c(S(=O)(=O)c3cccc(Cl)c3)nnn2c2ccsc12 | -0.31 | ·
42 | CCOc1ccc(S(=O)(=O)c2c[nH]c3cc4c(cc3c2=O)OCCO4)cc1 | 1.9 | -1.9
43 | Cc1cc(Cl)ccc1NS(=O)(=O)c1ccc2c(c1)NC(=O)CCS2 | 1.5 | ·
44 | CC1CS(=O)(=O)N(c2ccc(C(=O)NC(C)(C)C)c(Cl)c2)C1=O (configuration not stated) | 1.7 | -2.6
45 | O=C(Nc1nc(C2COc3ccccc3O2)cs1)c1ccccc1 (configuration not stated) | -0.03 | 0
46 | Cc1ccc(-c2nc(-c3cc4ccccc4[nH]c3=O)no2)cc1 | 0.39 | -0.23
47 | COc1ccc(S(=O)(=O)n2cnc3cc(C)c(C)cc32)c2ccccc12 | 0.27 | -0.12
48 | O=C(Nc1nnc2n1CCS2)c1ccc2c(c1)OCO2 | 0.94 | ·
49 | C#CCSc1nc2c(c(=O)[nH]1)C1(CCCC1)Cc1ccccc1-2 | · | -0.91
50 | CCOCCn1c(CN2CCOCC2)nc2c1c(=O)n(C)c(=O)n2C | -0.35 | -1.9
51 | Cc1cc2nc(-c3cc(NC(=O)/C=C/c4ccccc4)ccc3O)oc2cc1C | · | -3.6
52 | CCOc1ccc(CONC(=O)OC)cc1 | · | -1.2
53 | CN(C)c1nc(Oc2ccc(=O)n(-c3ccccc3)n2)nc(N2CCCC2)n1 | 1.9 | -1.4
54 | COc1ccc2nc(NC(=O)C3CC(=O)N(CCc4c[nH]c5ccc(Cl)cc45)C3)sc2c1 (configuration not stated) | -0.47 | 0.06
55 | Nc1ccc(C(=O)O)c(O)c1 | 0.96 | ·
56 | Cc1cc(CNC(=O)Nc2ccccc2)c(C)n1-c1ccccc1 | -2.5 | ·
57 | Cc1ccc(C[n+]2ccccc2)c2nsnc12 | · | -1.7
58 | Cn1nnnc1SCCCNCc1ccc(-c2ccc(F)c(Cl)c2)o1 | 0.5 | 0.07
59 | COc1ccc(Oc2ncnc3sc(C)cc23)cc1 | -0.45 | ·
60 | COc1ccc(OC)c(C2/C(=C(\O)c3ccc(Cl)cc3)C(=O)C(=O)N2CCC(=O)O)c1 (configuration not stated) | · | -3.8

Whole records, looked up by structure.
Cc1ccc(-c2nc(-c3cc4ccccc4[nH]c3=O)no2)cc1 reads HIV TAR-Tat = 0.39; CDC25B CDK2 inh = -0.23
O=C(Nc1nnc2n1CCS2)c1ccc2c(c1)OCO2 reads HIV TAR-Tat = 0.94; CDC25B CDK2 inh = ·

(further entries)
no. | SMILES | HIV TAR-Tat | CDC25B CDK2 inh
61 | COc1ccc(Cn2cc(C(=O)c3ccc(OC)cc3)c(=O)c3cc4c(cc32)OCO4)cc1 | 3.3 | -1.6
62 | CCSC1(SCC)N=C(N)C2(C#N)C(c3ccc(NC(C)=O)cc3)C12C#N (configuration not stated) | · | -1.6
63 | COc1cc2nc(-n3nc(C)cc3C)n3nc(-c4ccccc4)nc3c2cc1OC | -1.3 | -0.85
64 | CCOC(=O)C1CCC(CNC(=O)N2CCC(n3nnc4ccccc4c3=O)CC2)CC1 (configuration not stated) | 0.83 | ·
65 | CCOc1ccc(N2C(=O)C3ON(c4ccccc4)C(c4cccs4)C3C2=O)cc1 (configuration not stated) | 2.1 | 1.1
66 | CCOC(=O)c1nc(N(CC)CC)c2c(C)noc2n1 | 0.17 | ·
67 | CCc1noc2nc(C)n(CC(=O)O)c(=O)c12 | -0.1 | -0.57
68 | Cc1cccc(NS(=O)(=O)c2ccc3c4c(cccc24)C(=O)N3)c1C | -0.52 | -0.62
69 | CCOc1c(N2CCc3ccccc32)c(=O)c1=O | 1.5 | ·
70 | CCOC(=O)c1c(C)c(S(=O)(=O)N2CCc3ccccc3C2)c(C)n1C | 0.5 | ·
71 | O=C(Nc1c2c(nn1-c1cccc(Cl)c1)CS(=O)C2)c1ccco1 (configuration not stated) | · | -0.25
72 | O=C(CCCc1nnc2n3nc(-c4ccccc4)nc3c3ccccc3n12)NC1CC1 | 0.57 | -1.9
73 | O=C(CSc1ncccc1C(=O)O)c1ccccc1 | 4.1 | ·
74 | FC(F)(F)c1nc2ccccc2[nH]1 | 1.8 | -0.97
75 | O=C(CCC(=O)N1Cc2ccccc2Oc2ncccc21)NCCN1CCOCC1 | 2.4 | ·
76 | O=c1n(Cc2ccc(F)cc2)nc2n1-c1ccccc1OC2 | 1.1 | -2.1
77 | CCOC(=O)n1c(=O)oc2ccc(S(=O)(=O)N3CCCCC3)cc21 | 0.32 | -0.32
78 | Clc1ccccc1OCc1nnc(-c2ccccc2)o1 | 3.1 | 0.39
79 | Cc1nn(C)c(C)c1CNC(=O)C1=Cc2ccccc2OC1 | 0.29 | ·
80 | CCc1nn(CC(=O)NCC2CCCO2)c(=O)c2cc3ccccc3n12 (configuration not stated) | 1 | -0.98
81 | Cc1c(C(=O)NCCCN2CCCCC2)sc2nc3n(c(=O)c12)CCCCC3 | 1.8 | ·
82 | CN(CC(=O)N1CC=C(c2ccccc2)CC1)S(=O)(=O)c1ccc2c(c1)CCC(=O)N2 | · | -1.6
83 | O=C(C1=C(N2CCCC2)c2ccccc2S1(=O)=O)N1CCOCC1 | 1.9 | ·
84 | COC(=O)c1cnc(N(C)Cc2ccccc2)c2ccccc12 | 0.6 | ·
85 | CC1(C)NC(=O)N(CC(O)COc2ccc3ccccc3c2)C1=O (configuration not stated) | -0.32 | -0.75
86 | C=CCOC(=O)C1=C(C)NC2=C(C(=O)CC(C)(C)C2)C1c1cccc(OC)c1 (configuration not stated) | 0.2 | -0.19
87 | CCC1(C)Cc2c(sc3nc(SC)nc(SCC(N)=O)c23)CO1 (configuration not stated) | -0.44 | -11
88 | COCCNc1nc(NCc2ccccc2)c2cnn(C)c2n1 | 0.52 | ·
89 | CSc1nccc(-c2ccc(Cl)cc2)n1 | · | -1
90 | CCn1c(SCC(=O)c2ccc(F)cc2)nnc1-c1cccs1 | 1.3 | ·

Brought forward from above: 7 entries; new compounds follow.
no. | SMILES | HIV TAR-Tat | CDC25B CDK2 inh
84 | COC(=O)c1cnc(N(C)Cc2ccccc2)c2ccccc12 | 0.6 | ·
85 | CC1(C)NC(=O)N(CC(O)COc2ccc3ccccc3c2)C1=O (configuration not stated) | -0.32 | -0.75
86 | C=CCOC(=O)C1=C(C)NC2=C(C(=O)CC(C)(C)C2)C1c1cccc(OC)c1 (configuration not stated) | 0.2 | -0.19
87 | CCC1(C)Cc2c(sc3nc(SC)nc(SCC(N)=O)c23)CO1 (configuration not stated) | -0.44 | -11
88 | COCCNc1nc(NCc2ccccc2)c2cnn(C)c2n1 | 0.52 | ·
89 | CSc1nccc(-c2ccc(Cl)cc2)n1 | · | -1
90 | CCn1c(SCC(=O)c2ccc(F)cc2)nnc1-c1cccs1 | 1.3 | ·
91 | CC1CCCC(C)N1C(=O)c1nn2c(c1Cl)NC(c1cccs1)CC2C(F)(F)F (configuration not stated) | 2.7 | -1.1
92 | Cc1nc2c(c(C)nn2C)c(C)c1CCC(=O)NCc1ccco1 | 2.7 | -2.2
93 | O=C(NCCC1=CCCCC1)c1ccc(C2Nc3ccccc3S(=O)(=O)N2)cc1 (configuration not stated) | 0.18 | ·
94 | Cc1ccc(C2N=C(N)Nc3nc4ccccc4n32)cc1 (configuration not stated) | 1.6 | 0.5
95 | CN(CC(=O)NC1CS(=O)(=O)CC1Cl)S(=O)(=O)c1ccc2c(c1)CCC(=O)N2 (configuration not stated) | · | -1
96 | COc1ccc(/C=C/c2nn3c(C(F)(F)F)nnc3s2)cc1 | 0.71 | 0.21
97 | Cc1noc(-c2ccc(-c3noc(-c4cccc(F)c4)n3)cc2)n1 | 0.39 | ·
98 | CCOc1ccc(C2C(C(=O)OC)=C(C)N=C3SCCC(=O)N32)cc1OC (configuration not stated) | 3.1 | -1.3
99 | CN1C(=O)c2cc(C(=O)N3CCOCC3)nn2CC1(C)C(=O)NC1CCCC1 (configuration not stated) | -1 | ·
100 | O=C(Nc1ccccc1)Nc1nc2c(s1)CCCCC2 | -0.65 | ·
101 | O=C1C(c2cccc([N+](=O)[O-])c2)=C(O)c2ccccc21 | · | -0.13
102 | CCOC(=O)c1oc2nc(-c3ccccc3)cc(C)c2c1NC(=O)Nc1ccc(Cl)cc1 | · | -1
103 | CCCn1cc2c(c1-c1ccc(Br)cc1)c(=O)n(C)c(=O)n2C | 0.31 | -1.9
104 | Cc1[nH]n(-c2ccccc2)c(=S)c1C=Nc1cccc(Br)c1 | -0.48 | 2.2
105 | Cc1ccc(-c2cc(-c3ccccc3)nc(N)n2)cc1 | -2.3 | 1.9
106 | CN1CCC(N(Cc2ccccn2)S(=O)(=O)c2ccc3c(c2)C(C)(C)C(=O)N3C)CC1 | 0 | ·
107 | CS(=O)(=O)Nc1cccc(C2=NN(C(=O)C3CCCCC3)C(c3cccc(F)c3)C2)c1 (configuration not stated) | · | -1.8
108 | CCOC(=O)Cn1c(=O)oc2cc(S(=O)(=O)NC(C)(C)CC)ccc21 | 0.29 | -1.3
109 | COc1ccc(OC)c(NC(=O)C2CCCN(S(=O)(=O)c3ccc4c(c3)oc(=O)n4C)C2)c1 (configuration not stated) | 0.92 | 0.37
